Vaccinia stage: blocks a specific stage of Vaccinia orthopoxvirus infection, primary screen, cell-based, single point; 0.01% of 89,000 active; activity change (mCherry), % (test concentration not listed); Vaccinia-infected cells, mCherry/Venus stage reporter fluorescence; hits give low values; some inactives read as strong as hits;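 active = mCherry past -33% and 40 or more points under the early reporter, replicates agreeing; inconclusive = past -33% without that gap or agreement; tested in A549 cells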;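 note: scaled between vehicle wells and reference inhibitor wells; 23 nL library stock went into each well; one replicate is shown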
Vaccinia stage Venus: second read-out of Vaccinia stage, no call of its own (marks repeat the call); activity change (Venus), %; measured here: Venus reporter, other viral stage;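 negative = less Venus signal; first of two replicates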
Numbers without * were called inactive; ? = inconclusive; . = no result given; & = joins results of further samples.

Results follow in this order: Vaccinia stage | Vaccinia stage Venus
C[C@@H]1CN([C@@H](C)CO)C(=O)c2cc(C#CC3CCCCC3)cnc2O[C@@H]1CN(C)C(=O)c1ccncc1
→ -11 | -17
O=C(Nc1ccccc1F)N1CC(=O)N2[C@@H](CO)[C@H](c3ccc(C#Cc4ccc(F)cc4)cc3)[C@@H]2C1
→ ? | .
OC[C@@H]1[C@@H](c2ccc(C#CC3(O)CCCC3)cc2)[C@@H]2CN(Cc3cncnc3)CCCCN12
→ 7 | -2
COCC#Cc1ccc2c(c1)O[C@@H](CN(C)C(=O)Nc1ccc(OC)cc1)[C@H](C)CN([C@H](C)CO)S2(=O)=O
→ 10&8 | -4&2
COc1ccc(NC(=O)N(C)C[C@@H]2Oc3ccc(NS(C)(=O)=O)cc3C(=O)N([C@H](C)CO)C[C@@H]2C)cc1
→ 15 | 3
Cc1cc(C(=O)Nc2ccc3c(c2)C(=O)N(C)[C@H]2CC[C@@H](CC(=O)NCc4ccc(-c5ccccc5)cc4)O[C@@H]2CO3)no1
→ -32 | -37
C[C@@H]1CN([C@@H](C)CO)C(=O)CCCn2cc(nn2)CO[C@@H]1CN(C)Cc1cccc(C(=O)O)c1
→ 17 | 8
O=C(C[C@@H]1C=C[C@@H](NS(=O)(=O)c2ccccc2)[C@H](CO)O1)NCc1ccncn1
→ 13 | 6
C[C@@H]1CN([C@H](C)CO)C(=O)c2cc(-c3ccccc3)cnc2O[C@@H]1CN(C)CC1CC1
→ -17 | 5
C[C@H]1CN([C@@H](C)CO)C(=O)c2ccccc2-c2ccccc2CO[C@H]1CN(C)C(=O)NC1CCCCC1
→ 15 | 5
COc1cccc(S(=O)(=O)Nc2ccc3c(c2)[C@@H]2C[C@@H](CC(=O)NC4CCCCC4)O[C@H](CO)[C@@H]2O3)c1
→ 6 | -2
COc1ccc(S(=O)(=O)N(C)C[C@H]2Oc3c(NC(=O)NC(C)C)cccc3C(=O)N([C@H](C)CO)C[C@H]2C)cc1
→ 13 | 8
CCCNC(=O)C[C@@H]1CC[C@H]2[C@@H](COC[C@@H](O)CN2C(=O)Nc2cccc(Cl)c2)O1
→ 0 | 5
C[C@H]1CN([C@@H](C)CO)S(=O)(=O)c2ccc(C#CCC3CCCC3)cc2O[C@H]1CN(C)C(=O)c1cnccn1
→ ? | .
O=S(=O)(Cc1ccccc1)NCC[C@@H]1CC[C@H](NS(=O)(=O)c2ccccc2)[C@H](CO)O1
→ 3 | 5
CO[C@@H]1CN(C)C(=O)c2ccc(NC(=O)C3CC3)cc2OC[C@H](C)N(CC2CC2)C[C@@H]1C
→ 5 | 8
CCCN(C)C[C@@H]1Oc2cc(-c3ccccc3OC)ccc2S(=O)(=O)N([C@@H](C)CO)C[C@@H]1C
→ -3 | -3
COc1ccc(NC(=O)Nc2ccc3c(c2)[C@H]2C[C@H](CC(=O)NC4CCCCC4)O[C@@H](CO)[C@H]2O3)cc1
→ -2 | -5
O=C(O)C[C@@H]1C=C[C@H](NC(=O)Nc2ccccc2)[C@H](CO)O1
→ 7 | 11
C[C@H](CO)N1C[C@H](C)[C@H](CN(C)CC2CCCC2)Oc2ncc(-c3cccc(F)c3)cc2C1=O
→ 4 | 1
COc1ccc(CN(C)C[C@@H]2Oc3c(NC(=O)Nc4ccc(OC)cc4)cccc3C(=O)N([C@@H](C)CO)C[C@H]2C)cc1
→ 7 | 4
C[C@@H]1CN([C@H](C)CO)C(=O)c2cc(C3=CCCC3)cnc2O[C@H]1CN(C)Cc1cccc(F)c1
→ ? | .
CC(C)(C)[S@](=O)N1Cc2cc(C(=O)NCCN3CCCCC3)nc(-c3cccc(-c4cccc(C#N)c4)c3)c2[C@@H]1CCO
→ ? | .
CC(=O)N1[C@@H](CO)[C@@H]2c3ccccc3N(C(=O)Nc3cc(F)ccc3F)C[C@@H]21
→ -2 | 3
C[C@H](CO)N1C[C@H](C)[C@H](CN(C)Cc2ccc(-c3ccccc3)cc2)Oc2c(NC(=O)C3CCOCC3)cccc2C1=O
→ 5 | 0
CC(=O)NC[C@@H]1[C@H](c2ccc(-c3cccc(F)c3)cc2)[C@H](CO)N1C(C)=O
→ -9 | -12
O=C(C[C@@H]1CC[C@@H]2[C@H](COC[C@H](O)CN2CCc2ccccc2)O1)N1CCC(Cc2ccccc2)CC1
→ -26 | -15
C[C@H](O)C#Cc1ccc([C@H]2[C@H](CO)N3CCCCN(S(=O)(=O)Cc4ccccc4)C[C@@H]23)cc1
→ 9 | 5
C[C@@H]1CN([C@H](C)CO)C(=O)c2cccc(N(C)C)c2O[C@@H]1CN(C)Cc1ccc2c(c1)OCO2
→ 5 | -2
COc1ccc(NC(=O)N(C)C[C@H]2Oc3ccc(NC(=O)CCCCCC(=O)Nc4ccccc4N)cc3CC(=O)N([C@@H](C)CO)C[C@@H]2C)cc1
→ 3 | 2
C[C@@H]1CN([C@H](C)CO)S(=O)(=O)c2ccc(C3=CCCCC3)cc2O[C@H]1CN(C)S(C)(=O)=O
→ ? | .
COC(=O)C[C@H]1CC[C@@H]2[C@@H](COc3ccc(NC(=O)c4ccccc4F)cc3C(=O)N2C)O1
→ 8 | 6
CCCC(O)C#Cc1cnc2c(c1)C(=O)N([C@H](C)CO)C[C@H](C)[C@H](CN(C)S(=O)(=O)c1ccc(F)cc1)O2 (stereo not given in full)
→ 11 | 7
CCCNC(=O)C[C@H]1C[C@@H]2c3cc(NC(=O)NC4CCCC4)ccc3O[C@@H]2[C@@H](CO)O1
→ 10 | 10
C[C@@H]1CCCCO[C@H](CN(C)S(C)(=O)=O)[C@H](C)CN([C@@H](C)CO)C(=O)c2cc(NC(=O)C3CCCCC3)ccc2O1
→ 1 | -1
O=C(NC1CCCC1)N1CC(=O)N2[C@H](C1)[C@@H](c1ccc(-c3cccc(F)c3)cc1)[C@@H]2CO
→ ? | .
C/C=C/c1ccc([C@@H]2[C@H](CO)N(S(C)(=O)=O)[C@H]2CN(CC)C(C)=O)cc1
→ 4 | 5
O=C(C[C@H]1C[C@@H]2c3cc(NC(=O)Nc4ccc(C(F)(F)F)cc4)ccc3O[C@@H]2[C@H](CO)O1)NCc1cc(F)ccc1F
→ -14 | -16
CN1CCN(C(=O)C[C@H]2C=C[C@@H](NC(=O)c3ccc4c(c3)OCO4)[C@@H](CO)O2)CC1
→ 7 | 1
Cc1noc(C)c1S(=O)(=O)Nc1cccc2c1O[C@@H](CN(C)S(=O)(=O)c1ccccc1)[C@@H](C)CN([C@H](C)CO)C2=O
→ 7 | 0
Cn1cnc(S(=O)(=O)N2CCCCN3[C@H](CO)[C@H](c4ccc(-c5cccc(F)c5)cc4)[C@@H]3C2)c1
→ -11 | -24
C[C@H](CO)N1C[C@H](C)[C@@H](CN(C)C)Oc2ccc(NS(=O)(=O)c3cccs3)cc2CC1=O
→ 10 | 8
O=C([C@H]1[C@H](CO)[C@H]2Cn3c(ccc(-c4cccc(F)c4)c3=O)[C@H]2N1Cc1cocn1)N1CCCCC1
→ -16 | -5
CN1c2ccc(-c3ccccc3)cc2[C@H]2[C@H](CCN2C(=O)Cc2ccccn2)[C@@H]1CO
→ -4 | 2
CC=Cc1ccc2n(c1=O)C[C@H]1[C@H](CO)[C@@H](C(=O)NC3CCCC3)N(CC3CCCCC3)[C@@H]21 (mixture of isomers)
→ ? | .
CC=Cc1ccc2n(c1=O)C[C@@H]1[C@@H](CO)[C@H](C(=O)N(C)C)N(CC3CCCCC3)[C@H]21 (mixture of isomers)
→ -7 | -7
CCN(C[C@H]1[C@@H](c2ccccc2)[C@@H](CO)N1C(C)=O)C(=O)c1ccccn1
→ 10 | 1
C[C@H]1CN([C@@H](C)CO)C(=O)c2cc(NC(=O)Nc3ccccc3)ccc2O[C@@H]1CN(C)C(=O)Nc1ccc(C(F)(F)F)cc1
→ 23 | 14
C[C@H]1CCCCO[C@H](CN(C)S(C)(=O)=O)[C@@H](C)CN([C@@H](C)CO)C(=O)c2cc(NC(=O)NC3CCCCC3)ccc2O1
→ 20 | 12
COc1ccc([Si](C)(C)[C@@H]2[C@@H](CCO)O[C@]3(C(=O)N(Cc4ccc(NC(=O)[C@H](C)O)cc4)c4ccccc43)[C@H]2C)cc1
→ ? | .

The list goes on:
Results follow in this order: Vaccinia stage | Vaccinia stage Venus
CO[C@H]1CN(C)C(=O)c2cc(NC(=O)NC3CCCC3)ccc2OC[C@@H](C)N(CC2CC2)C[C@@H]1C
→ -2 | 0
C[C@@H](NC(=O)C[C@H]1CC[C@H]2[C@@H](COC[C@H](O)CN2C(=O)Nc2cccc(F)c2)O1)c1ccccc1
→ -15 | -2
N#C[C@@H]1[C@@H](c2ccc(C3=CCCC3)cc2)[C@@H](CO)N1C(=O)NC1CCCCC1
→ 8 | 10
COc1ccc(CN(C)C[C@@H]2Oc3c(NS(=O)(=O)c4ccc(C)cc4)cccc3C(=O)N([C@H](C)CO)C[C@@H]2C)cc1
→ -13 | -12
CO[C@@H]1CN(C)C(=O)c2ccc(NS(=O)(=O)c3c(C)noc3C)cc2OC[C@H](C)NC[C@@H]1C
→ 16 | 5
Cc1ccc(S(=O)(=O)Nc2ccc3c(c2)CC(=O)N([C@H](C)CO)C[C@@H](C)[C@@H](CN(C)Cc2ccc(Oc4ccccc4)cc2)O3)cc1
→ ? | .
CCNC(=O)C[C@@H]1CC[C@@H]2[C@H](COC[C@H](O)CN2C(=O)Nc2ccc3c(c2)OCO3)O1
→ 36 | 8
C[C@@H]1CN([C@H](C)CO)C(=O)c2cc(NC(=O)Nc3ccccc3)ccc2O[C@H]1CN(C)C(=O)Nc1ccccc1
→ 3 | 9
O=C(C[C@@H]1CC[C@H]2[C@@H](COC[C@@H](O)CN2CCc2ccccc2)O1)NCc1ccccc1
→ 15 | 14
COCCNC(=O)C[C@@H]1C=C[C@@H](NC(=O)NC2CCCCC2)[C@H](CO)O1
→ -9 | -1
O=C(C[C@@H]1CC[C@@H]2[C@H](COC[C@@H](O)CN2Cc2cc(F)ccc2F)O1)N[C@H]1CCN(Cc2ccccc2)C1
→ -19 | -12
C[C@H]1CN([C@@H](C)CO)C(=O)c2c(c3ccccc3n2C)-c2ccccc2CO[C@H]1CN(C)S(=O)(=O)c1ccc(F)cc1
→ ? | .
C[C@H]1CCCCO[C@@H](CN(C)C(=O)Nc2cccc3ccccc23)[C@@H](C)CN([C@@H](C)CO)C(=O)c2cc(NS(=O)(=O)c3cccs3)ccc2O1
→ 8 | 3
Cc1ccc(S(=O)(=O)N(C)C[C@H]2Oc3ccc(NC(=O)NC4CCCCC4)cc3C(=O)N([C@@H](C)CO)C[C@@H]2C)cc1
→ -5 | -5
Cc1ccc(S(=O)(=O)Nc2ccc3c(c2)C(=O)N([C@@H](C)CO)C[C@@H](C)[C@H](CN(C)Cc2ccc4c(c2)OCO4)O3)cc1
→ -4 | -8
CC(C)C#Cc1cnc2c(c1)C(=O)N([C@H](C)CO)C[C@@H](C)[C@H](CN(C)Cc1ccccc1F)O2
→ -21 | -15
C[C@@H]1CN([C@H](C)CO)C(=O)c2cc(NC(=O)c3ccncc3)ccc2O[C@@H](C)CCCCO[C@H]1CN(C)Cc1ccc(C(=O)O)cc1
→ 22 | 17
CNC[C@@H]1Oc2c(NC(=O)NC3CCCCC3)cccc2C(=O)N([C@H](C)CO)C[C@H]1C
→ 10 | 8
O=C1O[C@H](c2ccccc2)[C@H](c2ccccc2)N2[C@H]1[C@@H](C(=O)N1CCCCCCC1)[C@]1(C(=O)Nc3ccccc31)[C@H]2c1ccccc1OCCO
→ 19 | 4
C[C@H](NC(=O)C[C@@H]1CC[C@@H](NC(=O)CN2CCOCC2)[C@@H](CO)O1)c1ccccc1
→ -2 | 0

A section from the list above, for reference:
Results follow in this order: Vaccinia stage | Vaccinia stage Venus
C[C@@H]1CN([C@H](C)CO)C(=O)c2cc(NC(=O)Nc3ccccc3)ccc2O[C@H]1CN(C)C(=O)Nc1ccccc1
→ 3 | 9
O=C(C[C@@H]1CC[C@H]2[C@@H](COC[C@@H](O)CN2CCc2ccccc2)O1)NCc1ccccc1
→ 15 | 14
COCCNC(=O)C[C@@H]1C=C[C@@H](NC(=O)NC2CCCCC2)[C@H](CO)O1
→ -9 | -1
O=C(C[C@@H]1CC[C@@H]2[C@H](COC[C@@H](O)CN2Cc2cc(F)ccc2F)O1)N[C@H]1CCN(Cc2ccccc2)C1
→ -19 | -12
C[C@H]1CN([C@@H](C)CO)C(=O)c2c(c3ccccc3n2C)-c2ccccc2CO[C@H]1CN(C)S(=O)(=O)c1ccc(F)cc1
→ ? | .
C[C@H]1CCCCO[C@@H](CN(C)C(=O)Nc2cccc3ccccc23)[C@@H](C)CN([C@@H](C)CO)C(=O)c2cc(NS(=O)(=O)c3cccs3)ccc2O1
→ 8 | 3
Cc1ccc(S(=O)(=O)N(C)C[C@H]2Oc3ccc(NC(=O)NC4CCCCC4)cc3C(=O)N([C@@H](C)CO)C[C@@H]2C)cc1
→ -5 | -5
Cc1ccc(S(=O)(=O)Nc2ccc3c(c2)C(=O)N([C@@H](C)CO)C[C@@H](C)[C@H](CN(C)Cc2ccc4c(c2)OCO4)O3)cc1
→ -4 | -8
CC(C)C#Cc1cnc2c(c1)C(=O)N([C@H](C)CO)C[C@@H](C)[C@H](CN(C)Cc1ccccc1F)O2
→ -21 | -15
C[C@@H]1CN([C@H](C)CO)C(=O)c2cc(NC(=O)c3ccncc3)ccc2O[C@@H](C)CCCCO[C@H]1CN(C)Cc1ccc(C(=O)O)cc1
→ 22 | 17

(listing goes on)
Results follow in this order: Vaccinia stage | Vaccinia stage Venus
COc1ccc(S(=O)(=O)N[C@@H]2CC[C@@H](CCn3cc(-c4cccc(F)c4)nn3)O[C@H]2CO)cc1
→ 0 | -2
CC(=O)N1[C@H](CO)[C@H](c2ccccc2)[C@H]1CN(C(=O)c1cccc(F)c1)C(C)C
→ 10 | 4
COc1ccccc1NC(=O)N(C)C[C@H]1Oc2cc(Br)ccc2S(=O)(=O)N([C@@H](C)CO)C[C@H]1C
→ -28 | -23
COc1ccc2c3c(n(C)c2c1)[C@@H](CO)N(C(=O)c1cnccn1)CC31CCN(C(C)=O)CC1
→ 4 | -3
CO[C@@H]1CN(C)C(=O)c2ccc(NC(=O)C3CCC3)cc2OC[C@@H](C)N(CC2CCCCC2)C[C@@H]1C
→ -15 | -2

This is a subset (hit frequency here may not be typical).
